# Source: PubChem (ICCB-Longwood Screening Facility, Harvard Medical School)
# GIV-Gai inh: inhibitors of GIV GBA-motif binding to rat Galpha-i3; percent of control (FP), % (concentration not given with the values); P08753; AID 1224905; Galpha-i3/FITC-GIV peptide fluorescence polarization, 90 min; hits give low values; scaled: aluminum fluoride 0%, vehicle 100%; 0.42% of 210,000 active;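 active means replicate mean at 85% of control or lower, very high polarization wells dropped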;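 further: wells of about 15 µL received 100 nL stock; the first replicate is given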
# Target sequence (P08753 whole entry, looked up): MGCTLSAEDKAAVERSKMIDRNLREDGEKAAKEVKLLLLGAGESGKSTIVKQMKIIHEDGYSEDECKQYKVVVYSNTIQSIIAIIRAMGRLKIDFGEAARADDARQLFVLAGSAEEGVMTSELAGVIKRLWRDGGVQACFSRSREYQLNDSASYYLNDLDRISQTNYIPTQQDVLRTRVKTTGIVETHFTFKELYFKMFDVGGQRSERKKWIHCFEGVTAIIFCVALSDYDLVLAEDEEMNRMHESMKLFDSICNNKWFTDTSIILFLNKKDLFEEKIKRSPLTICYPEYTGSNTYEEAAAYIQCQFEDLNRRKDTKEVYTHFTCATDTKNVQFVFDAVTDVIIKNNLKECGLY
# Sa growth 42C: inhibitors of Staphylococcus aureus growth at 42 °C; S. aureus RN4220 growth, OD600, 20 h; hits give low values; relative growth, % (test concentration not listed); 0.53% of 170,000 active; AID 720641;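 active means growth at 42 °C up to 50% and 20 or more points under that at 30 °C, or under 10% at both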;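 further: 300 nL library stock went into each well; scaled to the means of positive and negative controls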
# HCMV UL50-53 inh: disrupts HCMV UL50-UL53 complex binding; HTRF UL50-UL53 interaction, normalized percent inhibition; inhibition, % (concentration not given with the values); 0.15% of 190,000 active; AID 1918969;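 active means both replicates at 50% or more, plus weaker picks with an unusually low signal ratio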;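 further: stock transfer was 100 nL into about 20 µL; 0% = negative control wells and 100% = wells with untagged competitor protein; inactives centre near -12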
# Sa growth 42C second temp: also measured in Sa growth 42C; calls as there; relative growth, %; measured here: growth at 30 °C;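 optical density after 20 h as mean of two plates; 100% = untreated growth and lower means inhibition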
# Numbers without * were called inactive; nt = no result given; & = joins results of further samples.
Compound	GIV-Gai inh	Sa growth 42C	Sa growth 42C second temp	HCMV UL50-53 inh
Cc1nnc(SCCn2c(N3CC(C)CC(C)C3)nc3c2c(=O)n(C)c(=O)n3C)s1 (stereo not given)	97	96	85	nt
COc1ccc(C(=O)OCc2ccccc2C(F)(F)F)c(O)c1	nt	84	97	-14
CC1CCN(C(=O)CN(C)S(=O)(=O)c2cccc3nsnc23)CC1	106	74	94	nt
CCOc1ccc(NC(=O)N2CCN(c3cnccn3)CC2)cc1	102	nt	nt	-30
Cc1cc(C)c2c(n1)SCC(=O)N2CC(=O)NCCCN1CCOCC1	100	84	84	-12
NS(=O)(=O)c1ccc(NC(=O)c2cn(-c3ccccc3)nc2-c2cccs2)cc1	nt	95	96	-26
O=C(CSCc1ccc(F)cc1)N1CCN(c2ccccc2)CC1	102&102	123&96	88&89	-12
CCOC(=O)C1=C(C)Nc2nnnn2C1c1ccc(OC)c(OC)c1 (stereo not given)	102	nt	nt	-11
CC(C)c1cccc(C(C)C)c1OC(=O)NC(=O)c1c(F)cccc1F	102	66	67	-15
Cn1cc(CCCC(=O)NCc2ccccc2Cl)c2ccccc21	98	91	99	-28
COc1ccc(N2CCN(c3ncnc4sc(C(=O)N5CCN(c6ccccn6)CC5)c(C)c34)CC2)cc1	106	nt	nt	-14
CN(C)CCN(C(=O)C1CCCCC1)c1nc2ccc(Br)cc2s1	105	129	84	nt
Cc1oc(C(C)(C)C)cc1C(=O)NCc1csc2ccc(Cl)cc12	105	119	94	14
O=C(c1cccc(Cn2c(=O)c3cccn3c3cccnc32)c1)N1CCN(c2ccccn2)CC1	100	nt	nt	4
Cc1ccccc1Nc1cc(C(=O)NC2CCCC2)c2ccccc2n1	102	99	87	-17
Cc1ccc(OC(=O)c2cc3ccccc3o2)cc1	97	0.0*	-0.9*	nt
CCCCC(=O)Nc1ccc2c(c1)nc(CN1CCN(C)CC1)n2CC	112	nt	nt	-5
O=C(COc1ccccc1Cl)NCC(c1ccccc1)c1c[nH]c2ccccc12 (stereo not given)	105	nt	nt	-18
COc1ccc(-c2nnc(SCC(=O)NCc3ccc(C)cc3)nc2-c2ccc(OC)c(OC)c2)cc1OC	102	135	95	nt
O=C(c1cc2ccccc2o1)N(C1CC1)C1(C(=O)Nc2ccccc2)CCCC1	nt	104	97	-8
Cc1ccc(Cl)cc1N1CCN(C(=O)c2cc(S(=O)(=O)N3CCC(C)CC3)cn2C)CC1	99	99	92	nt
CC(C)Sc1nc2c(cnn2-c2ccc(F)cc2)c(=O)[nH]1	94	nt	nt	-13
O=C(O)CCCC(=O)N1CCN(c2ccc(F)cc2)CC1	102	116	79	-5
COC(=O)c1ccc(CN2CCOCC2)o1	96	91	79	-14
O=C1c2ccccc2C(=O)N1c1nc(-c2cccs2)cs1	102	98	98	9
CN1CC(=O)N(CCCC(=O)O)C1=O	nt	93	89	-2
CCCCn1c(=S)[nH]c2ccccc21	102	97	79	-11
O=c1ccc(N2CCCN(S(=O)(=O)c3ccccc3)CC2)nn1-c1ccccc1	103	nt	nt	-54
Cc1cc(C)nc(SCc2nnc(SCC(=O)N3c4ccccc4Sc4ccc(Cl)cc43)o2)n1	103	100	83	-34
NC(=O)COC(=O)/C=C/c1cccc(Br)c1	nt	91	92	-46

# Four entries from above, as labelled records.
CN1CC(=O)N(CCCC(=O)O)C1=O
  GIV-Gai inh: nt
  Sa growth 42C: 93
  Sa growth 42C second temp: 89
  HCMV UL50-53 inh: -2

CCCCn1c(=S)[nH]c2ccccc21
  GIV-Gai inh: 102
  Sa growth 42C: 97
  Sa growth 42C second temp: 79
  HCMV UL50-53 inh: -11

O=c1ccc(N2CCCN(S(=O)(=O)c3ccccc3)CC2)nn1-c1ccccc1
  GIV-Gai inh: 103
  Sa growth 42C: nt
  Sa growth 42C second temp: nt
  HCMV UL50-53 inh: -54

Cc1cc(C)nc(SCc2nnc(SCC(=O)N3c4ccccc4Sc4ccc(Cl)cc43)o2)n1
  GIV-Gai inh: 103
  Sa growth 42C: 100
  Sa growth 42C second temp: 83
  HCMV UL50-53 inh: -34

# Continued.
Compound	GIV-Gai inh	Sa growth 42C	Sa growth 42C second temp	HCMV UL50-53 inh
O=C(Cn1cnc2c(nc3n2CCCCC3)c1=O)Nc1ccc(F)cc1	110	104	88	nt
CCOC(=O)C1CCC(CN(Cc2c(Cl)cccc2Cl)S(=O)(=O)c2ccc(F)cc2)CC1 (stereo not given)	99	91	90	nt
CCOc1ccc(NC(=O)c2cccc(Nc3cnc4ccccc4n3)c2)cc1	103	nt	nt	-5
Cc1nc2ccc(C(=O)O)cc2nc1C	101	81	102	-9
CCN(CC)S(=O)(=O)c1ccc2oc(C(=O)NC3CCCC(C)C3C)c(C)c2c1 (stereo not given)	103	78	78	-22
CC(N)C12CC3CC(CC(O)(C3)C1)C2 (stereo not given)	nt	114	84	-36
O=C(CSc1nnc(CNC(=O)c2ccco2)o1)c1ccccc1	98	92	86	nt
CCOC(=O)c1ccc(NC(=O)N2CC3CCCN3c3ccccc32)cc1 (stereo not given)	112	90	91	nt
Cc1ccccc1C(=O)c1cccn1CC(=O)NCc1cccc(Cl)c1	108	104	92	-12
Fc1ccc(C=Nc2cc(Cl)cc(Cl)c2)cc1F	nt	69	88	-5
Cn1c(=O)c2cc(S(=O)(=O)NC(Cc3ccccc3)C(=O)NCc3ccco3)ccc2n(C)c1=O (stereo not given)	105	112	88	-24
COc1ccc(/C=N/NC(=O)c2nnn(-c3nonc3N)c2C)cc1COc1ccc(F)cc1F	102	97	79	-14
CC(=O)N1CCN(S(=O)(=O)c2ccc(C)cc2)C1C(C)C (stereo not given)	103	77	94	14
OC(CNCCNc1ncccc1C(F)(F)F)Cn1ccc2ccccc21 (stereo not given)	106	100	93	-17
CCc1ccc(NC(=O)C(C)Sc2nnc(-c3ccccc3)o2)cc1 (stereo not given)	nt	94	88	-1
c1ccc(Cn2c(SCc3nc4ccccc4s3)nnc2C2CC2)cc1	nt	80	81	-6
COc1ccc(N2CCN(c3nc4ccc(C(=O)c5ccccc5)cc4n4cnnc34)CC2)cc1	110	93	99	nt
CCOc1ccccc1C1CC(=O)NC(C)=C1C(=O)OCC1CCCCC1 (stereo not given)	101	81	88	nt
COc1ccccc1OC(=O)c1sc2ccccc2c1Cl	101	nt	nt	-8
Cc1cc(I)cc(C)c1NC(=O)CSc1nnc(Cc2ccccc2)o1	112	101	91	6
CC(C)(C)NC(=O)c1cccc(NC(=O)c2ccco2)c1	105	91	71	-2
NC(=O)C1CCN(Cc2nc3cc(C(F)(F)F)ccc3c(=O)[nH]2)CC1	nt	98	86	-26
N#C/C(=C\NC1CCN(Cc2ccccc2)CC1)S(=O)(=O)c1ccccn1	110	104	88	-11
Nc1c(-c2nnc(SCC(=O)N3CCOCC3)n2CC2CCCO2)sc2ncccc12 (stereo not given)	98	nt	nt	-18
CC(C)NC(=O)C(Cc1ccccc1)N1C(=O)c2ccccc2C1=O (stereo not given)	nt	97	83	-17
CCn1c2c(c(=O)n3ncc(C(=O)Nc4ccc(Cl)cc4C)c13)CN(Cc1ccc(OC)cc1)CC2	103	74	76	nt
COc1ccc(CN=Cc2c(CSc3ccc(C)cc3)[nH]n(-c3nc4ccccc4s3)c2=O)cc1	106	nt	nt	-8
N#Cc1c(NC(=O)c2nn3c(c2Br)NC(c2ccco2)CC3C(F)(F)F)sc2c1CCCC2 (stereo not given)	93	nt	nt	-21
CCCN1C(=O)CC(C)Nc2ccccc21 (stereo not given)	103	nt	nt	4
NNC(=O)CC12CC3CC(CC(C3)C1)C2	104	92	89	1

# Following part.
# Results follow in this order: GIV-Gai inh | Sa growth 42C | Sa growth 42C second temp | HCMV UL50-53 inh
- COC(=O)c1ccc(COC(=O)c2cc(S(=O)(=O)N(C)C)ccc2N2CCCC2)o1
→ nt | 144 | 97 | 4
- O=c1[nH]c2ccccc2nc1Cc1cc2c(cc1Br)OCO2
→ 96 | nt | nt | -11
- Cn1nc(-c2ccc(Cl)cc2)c2cc(C(=O)O)sc21
→ 99 | nt | nt | -5
- O=C(NCc1ccc(F)cc1Cl)c1ccc(CSCc2ccccc2Cl)o1
→ 101 | 74 | 44 | nt
- COc1ccc(C(=O)NCC(c2ccco2)S(=O)(=O)c2ccc(F)cc2)cc1 (stereo not given)
→ 94 | 90 | 86 | nt
- O=C(NC1CCCCC1)N(Cc1ccccc1)Cc1ccco1
→ 103 | 102 | 94 | -19
- CC(C)NC(=O)NC(=O)CN1CCCC1
→ nt | 94 | 91 | -9
- O=C1CSC(=O)N1Cc1ccc(CN2C(=O)CSC2=O)cc1
→ 100 | 118 | 98 | nt
- COc1ccc(NC(=O)c2ccc(-c3nc(COc4ccccc4)c(C)o3)cc2)cc1
→ 103 | 103 | 83 | nt
- O=C(NC1CCCC1)c1coc2nc3ccccc3nc12
→ 111 | 89 | 86 | -6
- Cc1[nH]n(-c2ccccc2)c(=O)c1Sc1ccc(Cl)cc1
→ 96 | 21 | 5 | nt
- O=C(NC1CC1)c1cccc(-c2noc(C3CCC3)n2)c1
→ 99 | nt | nt | -4
- c1ccc(-c2ccc(SCc3cccnc3)nn2)nc1
→ 96 | 73 | 71 | -37
- O=C(CCN1C(=O)C2CC=CCC2C1=O)N1CCN(C(c2ccccc2)c2ccccc2)CC1 (stereo not given)
→ nt | 102 | 85 | -28
- CCC(NS(=O)(=O)c1ccc(OC)cc1)C(=O)NC1CCCCC1C (stereo not given)
→ 105 | 95 | 93 | nt
- O=C(CN1C(=O)c2ccccc2C1=O)Nc1ccc2c(c1)C(=O)Nc1ccccc1O2
→ 101 | nt | nt | -32
- COc1ccc2oc(C)c(C(=O)Nc3ccccc3Cl)c2c1
→ 104 | nt | nt | 1
- COC(=O)C(C)Sc1nc2ccccc2c(=O)n1-c1ccccc1 (stereo not given)
→ nt | 112 | 98 | 19
- Cc1ccc(-c2nnc3n(C(C)C)c4c(=O)[nH]c(=O)n(C)c4n23)cc1
→ 109 | nt | nt | -16
- CCc1nc(SC)ncc1C(=O)N1CCN(c2cc(Cl)ccc2C)CC1
→ 101 | 95 | 79 | nt
- COc1cc2c(cc1NC(=O)C(C)Sc1nncn1C)oc1ccccc12 (stereo not given)
→ nt | 108 | 84 | -25
- O=C(Nc1ccc(F)c(Cl)c1)c1cc(-c2cccnc2)on1
→ 100 | nt | nt | -17
- Cc1cc(=O)[nH]c(N2C(=O)c3ccccc3C2=O)n1
→ 99 | 94 | 88 | -7
- CCN(CC)c1nc2c(s1)C(=O)NCC(C)(C)C2
→ 96 | 93 | 89 | -10
- Cc1ccc(S(=O)(=O)NC(CC(=O)O)c2ccccc2)cc1 (stereo not given)
→ 96 | 106 | 101 | 4
- CCn1c(=O)n(-c2ccccc2)c(=O)c2c1c1cc(C)ccc1n2C
→ 100 | 97 | 85 | nt
- CCS(=O)c1scc(-c2ccc(Cl)cc2)c1C#N (stereo not given)
→ 102 | 105 | 80 | -5
- Cc1ccc(NC(=O)C(Cc2ccccc2)n2cccc2)cc1C (stereo not given)
→ 99 | 99 | 81 | -25
- CCc1ccc(CNC(=O)CCSCc2ccccc2F)cc1
→ 98 | 94 | 98 | nt
- Cc1ccc(S(=O)(=O)c2cc3c(=O)n4ccccc4nc3n(Cc3ccccc3)c2=N)cc1
→ 101 | 98 | 91 | nt
- Fc1ccc(-c2cc3ncnc(NCc4cccs4)c3s2)cc1
→ nt | 115 | 92 | -12
- CC1(C)CC(=O)C2=C(C1)N(Cc1ccco1)C1=C(C(=O)c3ccccc31)C2c1ccc(F)cc1 (stereo not given)
→ 106 | 105 | 99 | -3
- Cc1cccc(-c2nccc(Nc3cccc(C(=O)NC4CCCCC4)c3)n2)c1
→ 105 | nt | nt | -11
- COc1cccc(N2CCN(C(=O)CCCCCn3c(=O)[nH]c4ccccc4c3=O)CC2)c1
→ 99 | 102 | 80 | nt
- CCCCCCCCCCCCCCCC(=O)OCC(O)[C@H]1OC(=O)C(O)=C1O (stereo not given in full)
→ nt | 99 | 80 | -4&-2
- CCOC(=O)c1[nH]c(CSc2nnc(-c3ccncc3)n2CCOC)c(C(=O)OCC)c1C
→ nt | 108 | 89 | -18
- COC(=O)C(N)Cc1ccc(O)cc1 (stereo not given)
→ 105 | 92 | 83 | -25
- CCC1CCCCN1CCCNc1nc(=S)[nH]c2ccccc12 (stereo not given)
→ 109 | 106 | 87 | nt
- COc1ccc(-c2noc(CC(=O)N(C)c3ccccc3F)n2)cc1
→ 100 | 120 | 87 | nt
- N#Cc1nn(-c2ccccc2)c(=O)n(Cc2ccccc2)c1=O
→ 106 | 93 | 87 | -95
- CCn1c(=O)c(N2CCC(C(=O)NCCN3CCOCC3)CC2)nc2ccccc21
→ 102 | nt | nt | -49
- CC(C)(C)C(=O)NC(=S)Nc1cccc(O)c1
→ nt | 103 | 92 | 6
- O=C(NC1CCCC1)C1(S(=O)(=O)c2ccc(Cl)cc2)CC1
→ 106 | 81 | 80 | -9
- Cc1ccc2occ(CC(=O)Nc3cccnc3)c2c1
→ 101 | nt | nt | -6
- COc1ccc(Cl)cc1NC(=O)CSc1ccc(-c2sc(C)nc2C)nn1
→ 99 | 124 | 82 | nt
- CN1C(=O)C2C=CC1C1C(=O)N(c3ccccc3)C(=O)C21 (stereo not given)
→ 102 | 117 | 109 | 24
- O=C(c1nn2c(c1Cl)NC(c1ccc(F)cc1)CC2C(F)(F)F)N1CCN(Cc2ccccc2)CC1 (stereo not given)
→ 92 | nt | nt | -24
- Cc1cccc(-n2c(=O)c3c(c4cc(C)ccc4n3C)n(CC(=O)N3CCCC3)c2=O)c1
→ 112 | 88 | 85 | nt
